Screening data: PubChem, several laboratories
ugtP null kill: compounds lethal to S. aureus RN4220 ugtP deletion mutant; growth inhibition, % (no concentration beside the values); 330,000 tested, 0.54% active; AID 1259309; OD600 growth, 16 h; some inactives read as strong as hits;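 active = z-score under -3 and OD600 up to 0.15 on both plates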;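 note: plate controls were untreated wells for no effect and antibiotic for full effect; wells of about 80 µL received 100 nL stock; the first replicate is given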
Mtb hypoxia inh: Mtb hypoxia fluorescent reporter inhibition | M. tuberculosis hypoxia-regulated fluorescent reporter, fluorescence | fluorescence inhibition, % (no concentration beside the values) | 300,000 tested, 0.1% active | AID 1159583;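 active = 35 to 45% if threefold the growth effect, above 45% if 1.5-fold the growth effect; inactive = the rest, general growth blockers included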;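 note: wells of about 50 µL received 100 nL stock; 0% = vehicle wells and 100% = reference inhibitor wells; whole bacteria with a GFP reporter of the hypoxia response; strong numbers were not always called active; many hits fall short of the cut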
PrP UTR inh: inhibition of PrP 5' UTR reporter expression; cell-based PrP 5' UTR mRNA reporter, plate reader; inhibition, % (no concentration beside the values); 340,000 tested, 0.35% active; AID 488862;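 active = every replicate at 50% or more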;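 note: 0 = median of the neutral control wells; tested in H4 reporter cells; numbers are from one replicate; inactives centre near -14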
Bead autofluor: flagged as autofluorescent in microsphere protease counterscreen; compound autofluorescence counterscreen, microsphere flow cytometry; hits give high values; fluorescence intensity (concentration not given with the values); 360,000 tested, 3.1% active; AID 624483;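 active = at least 3 SD above the mean of all compounds, about 16000 in these data; inconclusive = too few beads counted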;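 note: 100 nL of 1 mM stock went into each well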
Sa RN4220 lethal: S. aureus RN4220 growth inhibition; OD600, 16 h; inhibition, % (no concentration beside the values); 330,000 tested, 0.33% active;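 active = z-score of -3 or lower and OD600 up to 0.18 on both plates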;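 note: plate controls were untreated cells for no effect and reference antibiotic for full effect; stock transfer was 100 nL into about 80 µL; one replicate is shown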
BJeLR lethal: kills HRASV12-expressing BJeLR cells; 300,000 tested, 0.17% active; inhibition, % (test concentration not listed); BJeLR (HRASV12) viability, CellTiter-Glo ATP luminescence, 48 h; reference of the scale not given here; AID 1554;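 active = replicate mean above 50%; inconclusive = above 50% but judged a plate artefact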;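 note: 50 nL library stock added to about 25 µL; numbers are from one replicate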
Mtb hypoxia inh growth: also measured in Mtb hypoxia inh; calls as there; growth inhibition, %; measured here: M. tuberculosis growth (absorbance);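 0% = vehicle and 100% = reference antibiotic; read after six days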
The depositor's hits bear a star; ? = inconclusive; . = not tested or not shown; & = joins results of further samples.

SMILES | ugtP null kill | Mtb hypoxia inh | Mtb hypoxia inh growth | PrP UTR inh | Bead autofluor | Sa RN4220 lethal | BJeLR lethal
CCOC(=O)C1CCN(C(=O)Nc2ccc3c(c2)nc(C)n3C)CC1 | 8 | -1 | 2 | -27 | 11706 | 5.3 | -6
Cc1nc(C)c(-c2csc(Nc3cccc(O)c3)n2)s1 | 0 | 2 | 1 | -91 | 4051 | -1.0 | -10
COc1ccc(CNC(=O)c2cc(SC)ccc2Cl)cc1OC | -5 | -6 | 5 | 15 | 4215 | 3.8 | -6
Nc1c(C(=O)Nc2ccccc2)sc2nc(-c3ccco3)ccc12 | 16 | 7 | 8 | -35 | 6308 | 9.9 | -2
O=C(NC(=S)Nc1ccc(N2CCCCC2)c(Cl)c1)c1ccc2c(c1)OCCO2 | . | . | . | 4 | 10211 | . | 19
CCOC(=O)c1ccc(Oc2cc(C)nc(SC)n2)cc1 | 24 | -5 | 0 | -25 | ? | 8.1 | -3
CCOC(=O)/C(=C\c1ccc(N2CCC(c3ccccc3)=N2)cc1)C(C)=O | 24 | 8 | 21 | -28 | 5231 | 11 | .
Cc1ccc(S(=O)(=O)Nc2cccc(C(=O)N3CCC(C(N)=O)CC3)c2)cc1 | 6 | 11 | 9 | -18 | 3018 | 2.8 | .
O=C(CC12CC3CC(CC(C3)C1)C2)NN=Cc1ccncc1 | -5 | 8 | 6 | . | . | 4.9 | .
NC(=O)c1cc2ccccc2oc1=NNC(=O)c1cccc(Cl)c1 | -2 | -1 | 1 | . | . | 2.7 | .
CCc1cc(CC)c(C=NNC(N)=O)c(CC)c1C=NNC(N)=O | 0 | 3 | 5 | . | . | 2.1 | .
COc1cc(OC)cc(C(=O)NCC2CCCN(Cc3cccc(C(C)=O)c3)C2)c1 (stereo unspecified) | 17 | 16 | 1 | -7 | 5228 | 0.6 | -2
C/C(=N\NC(=O)c1cccc(O)c1)c1ccc(NC(=O)Cc2ccccc2)cc1 | . | . | . | -8 | 5843 | . | 4
CCn1cc(C(=O)NCc2ccccc2OC)c(=O)c2cc(S(=O)(=O)N(C)C)ccc21 | -8 | . | . | -5 | 4281 | -2.2 | -17
CN1CCC(=O)N(C(COc2ccccc2)Cc2ccccc2)CC1 (stereo unspecified) | -1 | 3 | 8 | . | . | 1.8 | .
COC(=O)c1cn(Nc2ncc(C(F)(F)F)cc2Cl)c(=O)c2ccccc12 | -5 | 10 | 10 | -23 | 2763 | -13 | -10
O=C(NCCc1c[nH]c2ccccc12)c1cc2ccccc2oc1=O | 11 | -7 | 7 | -64 | 4461 | -12 | 0
O=c1cc(CSc2ccccn2)[nH]c(=O)[nH]1 | -4 | . | . | -18 | 2653 | 1.0 | -3
COC(=O)c1[nH]c2cc(OC)ccc2c1NC(=O)CCN1CCN(c2ccccc2)CC1 | -7 | 9 | 10 | -14 | 23523* | 5.6 | 1
O=C1N(Nc2ccccc2)C(c2ccc(Br)cc2)C12CCCC2 (stereo unspecified) | 0 | 8 | 3 | -21 | 8367 | 0.6 | 8
COc1cc(-c2n[nH]c(=S)n2-c2ccc(C)cc2)cc(OC)c1OC | 1 | -1 | 2 | -8 | 2662 | 6.0 | 1
CCc1cc(=O)oc2cc(C)cc(OC(C)C(=O)NCCCN3CCCC3=O)c12 (stereo unspecified) | -2 | 1 | 1 | -25 | 5150 | 3.8 | 4
Cc1ccc(C)c(OCC(=O)Nc2cccc(C(=O)O)c2)c1C | 0 | 15 | 3 | -44 | 10727 | 5.8 | 5
O=C(NCC(O)c1ccc2ccccc2c1)c1c(F)cccc1F (stereo unspecified) | 14 | 1 | 9 | -5 | 3391 | 4.0 | 3
O=C1CCCN1CCCNc1ncccc1[N+](=O)[O-] | 4 | 17 | 1 | -1 | 4669 | 3.2 | 8
O=C(Nc1ccc(OC(F)(F)F)cc1)c1ccc(-n2cncn2)nc1 | -4 | 6 | 3 | -11 | 2410 | 3.4 | 7
CC(C)(C)N(C(=O)Cn1nnc(-c2ccc(F)cc2)n1)C(C(=O)NC1CCCC1)c1ccncc1 (stereo unspecified) | -8 | 8 | 9 | -52 | 9484 | 2.7 | -2
Cc1cc(-c2ccccc2N)n[nH]1 | 7 | . | . | -13 | 2314 | 1.6 | 3
CCOC(=O)CSc1nnc(CNC(=O)c2ccc(OC)c(OC)c2)n1C | 8 | 5 | 4 | -23 | 10013 | 2.7 | -5
O=C(COc1ccc(F)cc1Cl)N1CCN(C(=O)c2cccs2)CC1 | 2 | 5 | 3 | 0 | 6348 | 4.6 | .

Compound profiles, as listed above. Screens in order: ugtP null kill, Mtb hypoxia inh, Mtb hypoxia inh growth, PrP UTR inh, Bead autofluor, Sa RN4220 lethal, BJeLR lethal
`COc1cc(-c2n[nH]c(=S)n2-c2ccc(C)cc2)cc(OC)c1OC` as listed: 1, -1, 2, -8, 2662, 6.0, 1
`Cc1ccc(C)c(OCC(=O)Nc2cccc(C(=O)O)c2)c1C` as listed: 0, 15, 3, -44, 10727, 5.8, 5
`COC(=O)c1[nH]c2cc(OC)ccc2c1NC(=O)CCN1CCN(c2ccccc2)CC1` as listed: -7, 9, 10, -14, 23523*, 5.6, 1
`CCc1cc(CC)c(C=NNC(N)=O)c(CC)c1C=NNC(N)=O` as listed: 0, 3, 5, ., ., 2.1, .
`C/C(=N\NC(=O)c1cccc(O)c1)c1ccc(NC(=O)Cc2ccccc2)cc1` as listed: ., ., ., -8, 5843, ., 4

(further entries)
SMILES | ugtP null kill | Mtb hypoxia inh | Mtb hypoxia inh growth | PrP UTR inh | Bead autofluor | Sa RN4220 lethal | BJeLR lethal
CCOc1cc(N2CCOCC2)c(OCC)cc1NC(=O)COc1cccc(Cl)c1 | 7 | 2 | 13 | -12 | ? | 8.0 | 0
Cc1cc(=O)oc2cc(OCC(=O)NCCc3nc4ccccc4[nH]3)ccc12 | 1 | -3 | 2 | -19 | ? | 4.2 | -2
CCOC(=O)c1sc2nc(C)nc(SCC(=O)NC3CCS(=O)(=O)C3)c2c1C (stereo unspecified) | . | . | . | 4 | 4357 | . | 4
O=C(CSc1nnc(-c2ccccn2)o1)Nc1ccccc1F | 3 | 2 | -1 | -39 | 6551 | 2.6 | 16
O=C(Nc1ccc2c(c1)OCO2)O[C@@H]1C[C@H]2CCCC(=O)N3CC[C@@H](C1)[C@@H]23 | . | . | . | -12 | 4038 | . | 7
CCN1C(=O)[C@H]2[C@@H](c3ccc(C)cc3)N3C(=O)N(c4cccc(F)c4)C(=O)[C@@]3(Cc3ccc(Cl)cc3)[C@H]2C1=O | . | . | . | -22 | 4330 | . | -12
COc1ccc(C)cc1S(=O)(=O)N1CCN(C(=O)c2ncoc2-c2ccc(F)cc2)CC1 | 2 | 5 | 2 | -10 | 3102 | 0.8 | -8
O=C(CN1CCOCC1)c1c[nH]c2ccccc12 | 2 | . | . | -15 | 4516 | 1.3 | -4
CC(=O)N1CC=C2C(C#N)=C(N)C(C#N)(C#N)C(CCc3ccccc3)C2C1 (stereo unspecified) | -2 | 3 | -6 | 4 | 4277 | -2.4 | -12
COCCCNc1ccnc2c(Cl)cccc12 | 3 | 8 | 4 | -8 | 2815 | 2.9 | 5
CCOc1ncccc1C(=O)Oc1ccc2c(c1)OCO2 | 4 | . | . | -11 | 2638 | 6.6 | 1
O=C(COC(=O)/C=C/c1ccc(Cl)cc1Cl)Nc1ccc2c(c1)OCCO2 | 6 | 7 | 6 | -22 | 4363 | -0.5 | 6
Cc1ccc(-n2nnnc2SCC(=O)Nc2cc(C)on2)c(C)c1 | . | . | . | -18 | 3539 | . | -6
COc1ccc(C2=NN(CCC(=O)NC3CCCCCC3)C(=O)CC2)cc1 | 2 | -6 | 5 | -14 | 6057 | 1.6 | 1
COc1cc(OC)c2c(-c3ccccc3)cc(=O)oc2c1C(CC(=O)N1CCOCC1)c1ccc2c(c1)OCO2 (stereo unspecified) | 2 | 4 | 1 | -2 | 4154 | 6.3 | 5

Copied from the list:
COc1cc(OC)c2c(-c3ccccc3)cc(=O)oc2c1C(CC(=O)N1CCOCC1)c1ccc2c(c1)OCO2 (stereo unspecified) in Sa RN4220 lethal is listed with 6.3
CCOc1ncccc1C(=O)Oc1ccc2c(c1)OCO2 in PrP UTR inh is listed with -11
Cc1cc(=O)oc2cc(OCC(=O)NCCc3nc4ccccc4[nH]3)ccc12 in BJeLR lethal is listed with -2
COc1ccc(C)cc1S(=O)(=O)N1CCN(C(=O)c2ncoc2-c2ccc(F)cc2)CC1 in BJeLR lethal is listed with -8

(listing goes on)
SMILES | ugtP null kill | Mtb hypoxia inh | Mtb hypoxia inh growth | PrP UTR inh | Bead autofluor | Sa RN4220 lethal | BJeLR lethal
O=C(CCSc1nc(-c2ccco2)cc(C(F)(F)F)n1)N1CCN(c2ccccn2)CC1 | -8 | 9 | 9 | -28 | 2289 | 15 | 2
O=C1c2cccc3cccc(c23)C(=O)N1c1cccc(O)c1 | -5 | 0 | -3 | -18 | 3583 | -3.9 | 7
CC(C)(C)NC(=O)CN(Cc1cccs1)C(=O)CCC(=O)Nc1nccs1 | 8 | 11 | 7 | -8 | 7874 | 4.1 | 13
O=C(CN1CCN(C(c2ccccc2)c2ccccc2)CC1)N1N=CCC1c1ccccc1 (stereo unspecified) | 1 | -1 | 4 | -36 | 4587 | -4.2 | -1
COC(=O)C1=C(c2ccccc2OCc2ccccc2)C[C@@H]2CC[C@H]1N2C(=O)NCc1cccc(F)c1 | -4 | 12 | 4 | -16 | 3549 | -24 | .
FC(F)(F)c1ccc(CN2C[C@@H]3C(c4ccc(Cl)nc4)C4(c5ccccc5)CC3(C4)[C@H]2c2ccccc2)cc1 (stereo partly specified) | . | . | . | -21 | 4198 | . | 6
CCn1c(SC)nc(O)c(C(c2ccc(OC)c(O)c2)c2c(O)nc(SC)n(CC)c2=O)c1=O | 0 | 1 | 11 | -16 | 3171 | -10 | 7
c1ccc(-c2nccc3ccccc23)cc1 | 11 | -6 | 4 | -10 | 4046 | 6.0 | -3
COc1ccc(N2CCN(C(=O)CSc3nc4[nH]ncc4c(=O)n3-c3ccc(Br)cc3)CC2)cc1 | 10 | -1 | 12 | -19 | 4927 | 5.8 | -1
CCOC(=O)C1C2COc3ccccc3C2N2C(=O)N(c3ccc(F)cc3)C(=O)[C@]12C (stereo partly specified) | 3&-13 | 8&3 | 7&5 | . | . | 6.0&6.7 | .
COc1ccc(-n2nnnc2SCC(=O)Nc2ccccc2)cc1 | 2 | 1 | -2 | -14 | 4145 | -0.1 | -3
CNC(=S)SCCOc1ccccc1C | 35 | 15 | 12 | -27 | 2643 | 6.5 | -18
CC1(C)CC[C@]2(CO)[C@@H](O)C[C@]3(C)C(=CCC4[C@@]5(C)CC[C@H](O)C(C)(C)C5CC[C@]43C)[C@@H]2C1 (stereo partly specified) | 28 | . | . | . | . | 28 | -11
CSCCC(NC(=O)C1CCC(C)CC1)C(=O)NCc1ccco1 (stereo unspecified) | 14 | 11 | 2 | 8 | 14544 | 4.4 | 7
O=C1NC(=O)C(=Cc2ccc(N3CCOCC3)o2)C(=O)N1 | 17 | . | . | -2 | 4794 | 5.1 | 3
Cc1ccc(NC(=S)Nc2cccc3ccccc23)cc1 | 7 | 2 | 18 | -3 | 6481 | -4.2 | 2
CN(C)C(=O)CNC(=O)C1CCCCC1 | 3 | . | . | -8 | 4852 | 2.0 | 0
Cc1nnc(SCCn2c(N3CCC(Cc4ccccc4)CC3)nc3c2c(=O)[nH]c(=O)n3C)s1 | 15 | -18 | 12 | . | . | 5.2 | -11
O=C(Nc1ccccc1C(=O)N1CCCC1)c1ccccc1 | 3 | 1 | 9 | 12 | 8738 | 1.4 | -8
CCc1nc(N2CCN(C(=S)NCCCOC)CC2)c2c3c(sc2n1)CCCC3 | -10 | 8 | 37 | -12 | 3812 | -7.8 | -7
CC(=O)Nc1sc2c(c1C(N)=O)CCCC2 | 0 | 2 | -4 | 0 | 4422 | 2.7 | -14
CNC(=O)COC(=O)/C=C/c1nc2ccccc2s1 | 5 | 2 | 6 | -25 | 3450 | 1.0 | 8
O=C(NCCCN1CCCC1=O)c1c(O)nc2ccccn2c1=O | 9 | 10 | 1 | -12 | 4883 | 2.7 | 9
CCCNC1=C(C)C(=O)C2=C(C1=O)C(COC(N)=O)[C@]1(OC)C3NC3CN21 (stereo partly specified) | 97* | . | . | -4 | 2785 | 99* | 14
CCc1nnc2n1N=C(c1cccc([N+](=O)[O-])c1)CS2 | 2 | -9 | -11 | -21 | 4914 | 2.3 | 2
Clc1ccc(C(CCN2CCCC2)Cc2ccccc2)cc1 (stereo unspecified) | 15 | 13 | 12 | -23 | 4375 | -0.3 | 10
CC(NC(=O)NC(N)=O)(C(F)(F)F)C(F)(F)F | 2 | 8 | 6 | -1 | 10017 | 5.9 | -1
